# Rango-impB inh – Rango-importin beta binding inhibition; Q14974; Rango CFP/YFP FRET sensor + importin beta, 45 min; Potency, µM (doses to about 92.2 µM), for the others: at the top dose inhibition of complex formation; 0.031% of 340,000 active; AID 540263; active = rising FRET ratio curve, often small or poorly fitted; inconclusive = mostly compound fluorescence or quenching in the first reads; inactive = flat curves in all reads;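 note: potency is the fitted concentration of half-maximal effect; 0% = DMSO wells and 100% = buffer wells lacking importin beta; nearly all actives have a fitted effect of over 15% in size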
#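 FRET biosensor Rango (snurportin 1 IBB between N-terminal EYFP and C-terminal Cerulean), 50 nM in PBS/1 mM DTT/0.02% Tween-20/0.1% BSA, preincubated 5 min RT with compound; 0.125 microM importin beta added, 45 min RT, CFP/YFP FRET ratio read.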
# Rango dissoc inh – inhibition of RanGTP-driven Rango-importin beta dissociation. O95149+P62826. Biochemical FRET Rango-importin beta, RanGTP-induced dissociation. Potency, µM (highest dose often 46.1 µM), for the others: top-dose activity change, negative = inhibition. 0.071% of 340,000 active. AID 540253; active means falling FRET ratio curve, often poorly fitted, with flat reads before Ran was added; inconclusive means other falling curves, or compound fluorescence or quenching; inactive means flat or rising ratio curve;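 note: potency is the fitted concentration of half-maximal effect; % of control where 0% means no effect; nearly all actives have a fitted effect of over 45% in size; -100% = wells without RanGTP and RCC1; the record marks most hits as doubtful in a second field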
#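 Two FRET readings bracket the reaction: one 5 min after compound meets Rango–importin beta, another 45 min after RanGTP-RCC1 (0.6 uM Ran, 0.2 uM RCC1, 2 mM GTP) is added. Only the second defines inhibition.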
# GLA inh pH 4.5 – blocks human alpha-galactosidase A at pH 4.5. 230,000 tested, under 10 active. purified enzyme, 4-MU-alpha-Gal fluorescence, pH 4.5. P06280. activity change, negative = inhibition, % at 105 µM; inconclusive = small, poorly fitted or top-dose-only inhibition, or a rising curve; inactive = flat fitted curve, though single readings scatter; no compound was filed as active;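 note: 0% = full activity with enzyme and -100% = basal without enzyme; dose as in the result columns while the protocol names 77 µM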
# Target sequence (P06280 whole entry, looked up): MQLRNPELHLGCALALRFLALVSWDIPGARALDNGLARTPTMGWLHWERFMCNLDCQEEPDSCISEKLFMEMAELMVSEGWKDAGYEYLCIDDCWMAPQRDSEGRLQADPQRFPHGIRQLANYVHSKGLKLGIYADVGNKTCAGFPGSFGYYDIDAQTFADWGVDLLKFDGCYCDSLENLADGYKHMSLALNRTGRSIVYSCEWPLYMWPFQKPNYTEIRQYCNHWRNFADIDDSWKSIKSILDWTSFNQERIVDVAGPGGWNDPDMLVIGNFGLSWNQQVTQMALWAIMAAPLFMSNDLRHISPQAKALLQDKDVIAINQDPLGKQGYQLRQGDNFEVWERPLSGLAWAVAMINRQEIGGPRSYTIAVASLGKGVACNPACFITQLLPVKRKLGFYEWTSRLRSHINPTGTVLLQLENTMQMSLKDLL
# miR-21 reporter – miR-21 reporter, rising signal | AID 2288 | Potency, µM (highest dose often 38.3 µM), inactives show at the highest dose reporter change, positive = more light | HeLa miR-21 FLuc reporter, luciferase, 48 h | 340,000 tested, under 10 active; active = well fitted rising curve with a large enough effect; inconclusive = small, poorly fitted or top-dose-only effect; inactive = no such curve, though single readings can be large or run the other way;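 note: % of control where 0% means no effect; miR-21 action dims this reporter so a rising signal means less miR-21 action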
#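 Compounds were titrated across several concentrations (up to approximately 40 uM) and incubated 48 hours with HeLa miR-21-FLuc reporter cells (miR-21 target sequence downstream of FLuc, endogenous miR-21). Readout was firefly luciferase luminescence after lytic detection reagent.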
# * hit, by the source's call; ? = inconclusive; nt = no result given; & = joins results of further samples. This is a subset; the hit share may differ from the screen's.
# Labels used below: A = Rango-impB inh; B = Rango dissoc inh; C = GLA inh pH 4.5; D = miR-21 reporter
structure: C/C=C1\NC(=O)[C@@H](NC(=O)[C@H](CCc2ccc(O)cc2)NC(=O)[C@H](C)NC(=O)[C@H](O)CO)[C@@H](C)OC(=O)[C@H](C(C)C)NC(=O)[C@H](Cc2ccc(O)cc2)N(C)C(=O)[C@H](Cc2ccccc2)N2C(=O)C(CC[C@H]2O)NC1=O (stereo partly drawn)
  A: -5.3%	B: -16%	C: nt	D: nt

structure: COc1cc(N2CCOCC2)ccc1/C=C1\C(=O)NC(=O)N(C2CCCCC2)C1=O
  A: -0.9%	B: 33%	C: -11	D: 0%

structure: Cc1cc(C=C2C(=O)N(C)C(=S)N(C)C2=O)c(C)n1-c1cccnc1
  A: 2.5%	B: -2%	C: 4	D: -1%

structure: CC(=O)[C@H]1CC[C@H]2[C@@H]3CCC4=CC(=O)CC[C@]4(C)[C@H]3CC[C@]12C
  A: -1.1%&2.9%	B: 45%&5%	C: -4&-8&-6&-4	D: 20%&24%

structure: COc1ccc(C(=O)N2CCCC2=O)cc1
  A: 13%	B: -4%	C: -3&3&1	D: -9%

structure: CC12CC[C@H]3[C@@H](CCC4(O)C[C@H](O)CCC34/C=N/NC(=O)c3ccccc3O)C1(O)CCC2C1=CC(=O)OC1 (stereo partly drawn)
  A: -3.8%	B: -20%	C: -4	D: 26%

structure: CCCCOP(=O)(c1ccc(N(C)C)cc1)C(Nc1ccccc1)c1ccccc1 (stereo not drawn)
  A: -0.4%	B: 6%	C: ?	D: 18%

structure: CCOc1ccccc1C1SCC(=O)Nc2c1c(=O)[nH]n2C(CC)CC (stereo not drawn)
  A: -0.1%	B: 20%	C: 4	D: 2%

structure: Cn1c(O)c(/C=N/NC(=O)c2ccncc2)c(=O)[nH]c1=S
  A: ?	B: ?	C: 2	D: -1%

structure: Oc1ccc(/C=N/NP(=S)(c2ccccc2)c2ccccc2)cc1
  A: 0.4%	B: 35%	C: -11	D: -5%

structure: S=C(c1ccc(Cl)cc1)N1CCOCC1
  A: -4.6%	B: 6%	C: 8	D: -6%

structure: CCOC(=O)c1[nH]c(C)c(C(=O)N2CCC3(CC2)OCCO3)c1C
  A: 1.9%	B: -11%	C: -5	D: -7%

structure: Nc1c(Cl)cc([N+](=O)[O-])cc1Cl
  A: 6.2%	B: -14%	C: nt	D: nt

structure: Cc1ccc(NS(=O)(=O)c2ccc(OCC(=O)N3CCN(C)CC3)cc2)cc1
  A: 14%	B: 0%	C: nt	D: -5%

structure: CC(OC(=O)c1cn(C)c2ccccc12)C(=O)N(C)c1ccccc1 (stereo not drawn)
  A: 0.2%	B: -22%	C: nt	D: nt

structure: CCN(CC)c1ccc(N=Cc2c(O)n(-c3ccccc3)c(=O)[nH]c2=O)cc1
  A: ?	B: ?	C: -4	D: 0%

structure: C#CCOCOCC#CCN(CC)CC
  A: 0.1%	B: -8%	C: 6	D: -3%

structure: CCCCC1C(=O)NC(=S)N(C)C1=O (stereo not drawn)
  A: -0.9%	B: 2%	C: nt	D: nt

structure: CCc1nc2ccc(N3CCN(C)CC3)cc2nc1CC
  A: 1.8%	B: -8%	C: -3	D: -32%

structure: COC(=O)C1=C(c2ccc(Cl)c(C(F)(F)F)c2)C[C@@H]2CC[C@H]1N2C(=O)NC1CCCCC1
  A: 3.8%	B: 13%	C: nt	D: nt

structure: COc1ccc(OCC(=O)N2CCN(Cc3ccc(SC)cc3)CC2)cc1
  A: -3.2%	B: 0%	C: -4	D: 5%&17%

structure: Clc1ccc2c(c1)C(OC1CN3CCC1CC3)c1ccccc1CS2 (stereo not drawn)
  A: 0.2%	B: -6%	C: -3	D: ?

structure: Cc1cccc(NP(=O)(Oc2ccccc2F)Oc2ccccc2F)c1
  A: 2.2%	B: 10%	C: -7	D: 6%

structure: CN1[C@H]2CC[C@@H]1C(C(=O)N1CCOCC1)=C(O)C2
  A: 2.5%	B: 3%	C: nt	D: nt

structure: CN1CCC(N(C)c2nc(-c3ccc([N+](=O)[O-])cc3)nc3ccccc23)CC1
  A: 4.0%	B: 1%	C: -3	D: ?

structure: c1cncc(CNC2CCCCC2)c1
  A: -4.1%	B: 15%	C: nt	D: 2%

structure: CN(C)CP(=O)(O)CN(C)C=O
  A: -0.3%	B: -4%	C: -19	D: -1%

structure: CC(C)C12CN3CCN(CC(C3)/C1=N\O)C2
  A: 2.7%	B: 32%	C: 0	D: -1%

structure: O=c1c2ccccc2[nH]c(=S)n1-c1cccnc1
  A: 5.8%	B: -14%	C: -3	D: -9%

structure: Cc1cccc(CCNCc2cc3cc(C)cc(C)c3[nH]c2=O)c1
  A: 2.5%	B: -1%	C: nt	D: 0%

structure: O=[N+]([O-])c1ccc(N2CCCNCC2)c2ncccc12
  A: -2.8%	B: 1%	C: -5	D: 4%

structure: COC1CC(OC2CCC3(C)C(CCC4C3CCC3(C)C(C5=CC(=O)OC5)C(OC(C)=O)CC43O)C2)OC(C)C1OC1OC(COC2OC(CO)C(O)C(O)C2O)C(O)C(O)C1O (stereo not drawn)
  A: nt	B: nt	C: -3	D: ?

structure: CCC(C(=O)Nc1ccc(Cl)cc1)N1CCCC1=O (stereo not drawn)
  A: ?	B: 16%	C: nt	D: nt

structure: COc1ccc(C(CNC(=O)Cc2ccc(Cl)c(Cl)c2)N2CCCCC2)cc1 (stereo not drawn)
  A: 0.2%	B: -12%	C: nt	D: -3%

structure: Brc1ccc2[nH]cc(/C=N/N3CCCCC3)c2c1
  A: 2.9%	B: 0%	C: -3	D: -2%

structure: COC(=O)C1=C(c2ccc(F)cc2OCc2ccccc2)C[C@@H]2CC[C@H]1N2C(=O)NCCCc1ccccc1
  A: -2.1%	B: -17%	C: nt	D: nt

structure: Cn1cc(C(=O)OCC(=O)Nc2ccccc2Cl)c2ccccc21
  A: 1.1%	B: 0%	C: nt	D: nt

structure: CC(C)N1CCN(Cc2ccc3c(c2)OCCO3)CC1CCO (stereo not drawn)
  A: 0.1%	B: 0%	C: 0	D: 0%

structure: Cc1cccc(-n2c(-c3ccco3)nc3ccccc3c2=O)n1
  A: 1.9%	B: -2%	C: 7	D: 1%

structure: CCN(CC)N=O
  A: -3.1%	B: -11%	C: nt	D: nt

structure: COC(=O)C1=C(c2ccc(-c3ccccc3)c(F)c2)C[C@@H]2CC[C@H]1N2C(=O)NCCOc1ccccc1
  A: -0.2%	B: -12%	C: nt	D: nt

structure: CCCCCn1c(=O)c(C(=O)Nc2ccccc2N)c(O)c2ccccc21
  A: -0.9%	B: 1%	C: nt	D: -2%

structure: CCCCOCCCn1c(N)c(C(=O)OC(C)COC)c2nc3ccccc3nc21 (stereo not drawn)
  A: ?	B: 9.2µM*	C: 6	D: 5%

structure: Cc1ccccc1N1C(=O)NC(=O)/C(=C\c2cc(Br)c(N3CCOCC3)o2)C1=O
  A: ?	B: ?	C: 1	D: -2%

structure: CCOC(=O)N(c1ccccc1)P1(=S)OCC(C)O1 (stereo not drawn)
  A: ?	B: ?	C: 0	D: -4%

structure: c1ccc(CN2CCNCC2)nc1
  A: 1.0%	B: 3%	C: nt	D: 1%

structure: COC(=O)C(O)(c1ccc(N=Cc2ccccc2O)c(C)c1)C(F)(F)F (stereo not drawn)
  A: -1.4%	B: 9%	C: -1	D: -2%

structure: Cn1c(O)c(C=NCCOc2ccc(Cl)cc2)c(=O)n(C)c1=O
  A: -0.8%	B: 6%	C: 0	D: -7%

structure: CCCCCCN1CCN(c2ccccc2Cl)CC1
  A: -0.1%	B: 2%	C: 1	D: -2%

structure: CC(=NCC1CCCO1)c1c(O)n(C2CCCCC2)c(=O)[nH]c1=O (stereo not drawn)
  A: -1.7%	B: -4%	C: 0	D: -13%

structure: O=C1NC(=O)C(=CN2CCc3ccccc32)C(=O)N1
  A: ?	B: ?	C: 2	D: 2%

structure: Cc1cc(OCC(=O)N[C@@H](Cc2ccccc2)C(=O)O)c2c3c(c(=O)oc2c1)CCC3
  A: -1.5%	B: 17%	C: nt	D: 4%

structure: CCOc1cc(/C=C2/C(=O)NC(=O)N(c3ccc(CC)cc3)C2=O)ccc1OC(=O)c1cccs1
  A: -1.3%	B: 2%	C: -12	D: 10%

structure: CCCCn1c(=O)c(C(=O)NCc2ccccc2)c(O)c2ccccc21
  A: -2.5%	B: 17%	C: nt	D: 1%

structure: C=CCn1c(O)c(C(C)=NCCCO)c(=O)[nH]c1=O
  A: 2.6%	B: 12%	C: 4	D: -1%

structure: Cc1ccc(C(c2nnnn2Cc2ccccc2)N2CC=C(c3ccc(F)cc3)CC2)cc1 (stereo not drawn)
  A: 0.2%	B: 0%	C: -11	D: -14%

structure: Cc1cc(C(=O)CS(=O)c2ccc(F)cc2)cc(C)c1OC(=O)N(C)C (stereo not drawn)
  A: ?	B: -4%	C: 1	D: -32%

structure: Cc1ccc(-n2c(/C=C/c3ccccn3)nc3ccccc3c2=O)cc1
  A: -2.7%	B: -1%	C: nt	D: 9%

structure: O=C(CNC(=O)OCc1ccccc1)Nc1ccc(Br)cc1C(=O)c1ccccc1Cl
  A: -4.3%	B: -23%	C: -5	D: 4%

structure: COc1cc(C[C@@H](C)N)c(OC)cc1I
  A: ?	B: 5%	C: 0&7	D: -1%

# A few values from the entries so far.
# Result for `CCOc1cc(/C=C2/C(=O)NC(=O)N(c3ccc(CC)cc3)C2=O)ccc1OC(=O)c1cccs1` under Rango-impB inh: -1.3%
# Result for `COc1cc(C[C@@H](C)N)c(OC)cc1I` under GLA inh pH 4.5: 0&7
# Result for `CCCCCCN1CCN(c2ccccc2Cl)CC1` under Rango-impB inh: -0.1%
# Result for `O=C(CNC(=O)OCc1ccccc1)Nc1ccc(Br)cc1C(=O)c1ccccc1Cl` under Rango dissoc inh: -23%
# Result for `Cc1cc(OCC(=O)N[C@@H](Cc2ccccc2)C(=O)O)c2c3c(c(=O)oc2c1)CCC3` under Rango dissoc inh: 17%

# Exported as tab-separated lines: entries from further up
Molecule	Rango-impB inh	Rango dissoc inh	GLA inh pH 4.5	miR-21 reporter
Cc1cc(OCC(=O)N[C@@H](Cc2ccccc2)C(=O)O)c2c3c(c(=O)oc2c1)CCC3	-1.5%	17%	nt	4%
CCOc1cc(/C=C2/C(=O)NC(=O)N(c3ccc(CC)cc3)C2=O)ccc1OC(=O)c1cccs1	-1.3%	2%	-12	10%
CCCCn1c(=O)c(C(=O)NCc2ccccc2)c(O)c2ccccc21	-2.5%	17%	nt	1%
C=CCn1c(O)c(C(C)=NCCCO)c(=O)[nH]c1=O	2.6%	12%	4	-1%
Cc1ccc(C(c2nnnn2Cc2ccccc2)N2CC=C(c3ccc(F)cc3)CC2)cc1 (stereo not drawn)	0.2%	0%	-11	-14%

# Following part.
# Labels used below: A = Rango-impB inh; B = Rango dissoc inh; C = GLA inh pH 4.5; D = miR-21 reporter
structure: COC(=O)C1=C(c2ccccc2)C[C@@H]2CC[C@H]1N2C(=O)NCc1cccc2ccccc12
  A: 2.6%	B: -9%	C: nt	D: nt

structure: C/C(=N/OC(=O)N(C)C)c1ncc(C(F)(F)F)cc1N1CCOCC1
  A: 1.2%	B: 14%	C: 6	D: -1%

structure: COc1ccc2[nH]cc(CCN=C(N)N)c2c1
  A: -0.2%	B: 0%	C: -7	D: 8%

structure: CCCN(CCC)[C@@H]1CCc2cccc(O)c2C1
  A: -2.4%	B: 13%	C: -2&-5&-4&-7	D: 0%

structure: Cc1ccccc1N1C(=O)NC(=O)/C(=C\c2cnn(-c3ccccc3)c2)C1=O
  A: -0.3%	B: 8%	C: -6	D: 14%

structure: C=C[C@@H]1C[C@@]1(C)[C@@H](NP(=O)(c1ccccc1)c1ccccc1)c1ccccc1
  A: 0.8%	B: -4%	C: -13&-24	D: 15%

structure: CCCOc1ccccc1C1SCC(=O)Nc2c1c(=O)[nH]n2C(C)CCC (stereo not drawn)
  A: -2.2%	B: 16%	C: -1	D: 10%

structure: O=C(c1ccc(F)cc1)C(Cc1ccccc1)N1CCCCC1 (stereo not drawn)
  A: 0.1%	B: 15%	C: 5	D: -42%

structure: COc1ccccc1CCNC1CCC(C)CC1 (stereo not drawn)
  A: 4.9%	B: -12%	C: 1	D: -3%

structure: CC1(C)N(O)C2CCCCC2N1O (stereo not drawn)
  A: -0.2%	B: -1%	C: -2	D: 0%

structure: Cc1cc2oc(=O)cc(-c3cc4ccccc4o3)c2cc1OC(=O)N(C)C
  A: 6.3%	B: 0%	C: nt	D: 0%
